# High-throughput results deposited in PubChem BioAssay by several laboratories.
# Mtb growth = M. tuberculosis H37Rv growth inhibitors, H37Rv strain (AID 1626); M. tuberculosis H37Rv growth inhibition; higher % means a stronger effect; 220,000 tested, 0.95% active; one-dose inhibition, % at 10 µM; IC50 in µM for titrated hits;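 active means confirmed in a dose series; inconclusive means inhibition above 80% but not taken into the dose series; inactive means below 80% or under 30% at every dose of the series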;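 further: bacteria incubated seven days before Alamar blue readout; 0% = bacteria only wells and 100% = bacteria with antibiotic wells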
# Mtb bLac sens = beta-lactam sensitization of Mtb H37Rv. inhibition, % at 25 µM. 330,000 tested, 0.27% active. M. tuberculosis H37Rv growth with meropenem, percent inhibition; hits of this screen are not shown here;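 active means about 74% or more and at least 40 points above the plate without the antibiotic, then above 30% in a dose series; inconclusive means first-round hits that could not be retested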;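 further: growth measured after seven days incubation then overnight dye step; 0% = bacteria only wells and 100% = bacteria with antibiotic; twin plates without the antibiotic show which effects depend on it; some results filed as inactive read as strong as hits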
# Arbovirus anti = blocks arbovirus infection | AID 1251 | 200,000 tested, 0.37% active | inhibition, % at 10 µM | arbovirus infection cell-based antiviral screen;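 active means inhibition from about 30%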;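 further: bluetongue infection of BSR cells; cell survival read as ATP light after 72 h; 0% = infected wells without compound and 100% = uninfected wells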
# RecA splice inh = blocks M. tuberculosis RecA intein splicing | P9WHJ3 | cell-free RecA intein splicing, fluorescence | inhibition, %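 (about 9 µM by stock and volumes)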 | 290,000 tested, 0.75% active | AID 2221; in the data active means inhibition above about 30%; inconclusive means no clear call, values can overlap the other calls;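 further: 0% = vehicle wells and 100% = reference inhibitor control wells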
# Target sequence (P9WHJ3 whole entry, looked up, canonical isoform): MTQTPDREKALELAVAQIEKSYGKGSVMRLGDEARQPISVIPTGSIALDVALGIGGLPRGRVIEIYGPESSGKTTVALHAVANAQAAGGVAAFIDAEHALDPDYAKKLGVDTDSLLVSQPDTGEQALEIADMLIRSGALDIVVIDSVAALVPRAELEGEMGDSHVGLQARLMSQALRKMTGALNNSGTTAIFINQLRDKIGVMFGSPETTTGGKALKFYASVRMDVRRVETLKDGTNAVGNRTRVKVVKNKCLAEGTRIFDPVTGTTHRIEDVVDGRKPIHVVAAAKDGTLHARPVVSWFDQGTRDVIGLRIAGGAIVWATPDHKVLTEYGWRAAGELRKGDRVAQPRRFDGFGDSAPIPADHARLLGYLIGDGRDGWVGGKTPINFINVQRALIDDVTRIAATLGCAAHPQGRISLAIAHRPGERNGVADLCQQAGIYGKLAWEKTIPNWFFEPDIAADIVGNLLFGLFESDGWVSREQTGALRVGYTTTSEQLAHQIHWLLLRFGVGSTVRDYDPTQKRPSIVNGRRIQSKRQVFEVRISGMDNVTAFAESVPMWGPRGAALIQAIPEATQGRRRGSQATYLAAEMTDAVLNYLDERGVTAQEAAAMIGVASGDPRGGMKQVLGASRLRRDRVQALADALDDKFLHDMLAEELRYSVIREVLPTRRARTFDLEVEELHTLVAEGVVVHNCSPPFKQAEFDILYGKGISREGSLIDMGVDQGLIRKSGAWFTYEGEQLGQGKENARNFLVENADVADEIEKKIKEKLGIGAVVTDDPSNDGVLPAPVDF
# YopH PTP inh = YopH (Yersinia) phosphatase inhibition. fluorescence Ex485/Em525. inhibition, %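 (about 10 µM by stock and volumes)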. 140,000 tested, 0.16% active. AID 898;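 active means inhibition of 50% or more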;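 further: controls were vehicle for no effect and minimum signal wells for full effect; inactives centre near -20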
# Arbovirus anti repeat = second read-out of Arbovirus anti, no call of its own (marks repeat the call); inhibition, %; measured here: 10K subset replicate screen; many hits read low in the repeat;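 first of two repeat runs on a subset; 0% = infected and 100% = uninfected wells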
# Starred values were filed as active, the others as inactive; ? = inconclusive; nt = no result given. Only part of the results is shown; the hit share may differ from the screen's.
SMILES,Mtb growth,Mtb bLac sens,Arbovirus anti,RecA splice inh,YopH PTP inh,others
[O-][n+]1c2c(c3c4non(O)c4ccc31)CCCC2,1%,12,-1,-0.6,-9,
Cc1ccn(CCC(=O)Nc2ccc(-c3ccno3)cc2)n1,nt,54,nt,1.7,nt,
N#CCc1ccc(NC(=O)Nc2cccc3ccccc23)cc1,nt,-2,nt,-1.1,nt,
O=C(COC(=O)c1ccccc1OCc1ccc(Cl)cc1)NC1CC1,5%,-2,2,1.3,-34,
Fc1cccc(Cl)c1Cn1nnc2c(N3CCC4(CC3)OCCO4)ncnc21,3%,-1,-3,-1.1,-7,
Cc1cccc(N(CC(=O)NCCC2=CCCCC2)S(C)(=O)=O)c1C,3%,-5,-2,nt,-20,
Cc1cc(C)c[n+](-c2[nH]c(=O)sc2/C=N/NC([S-])=Nc2ccccc2)c1,-2%,4,-14,-3.4,-30,
Cc1ccc(NC(=O)Cn2cccc2C2=NC(c3ccccc3)CO2)c(C)c1 (configuration not stated),9%,-4,-4,-5.7,-5,
CC(C)c1ccc(CNc2ccc([N+](=O)[O-])cn2)cc1,10%,-5,-19,4.1,nt,
CCCC(C)n1[nH]c(=O)c2c1NC(=O)CSC2c1ccc(OC)c(OC)c1 (configuration not stated),-2%,-1,-3,-6.9,-114,
Cc1ccccc1OCc1nc(-c2ccc(NC(=O)c3ccco3)cc2)no1,19%,35,-5,1.7,14,
Nc1ccc(C(=O)Nc2nc3ccccc3s2)cc1,-2%,1,-7,0.5,-18,
O=C(CNC1CCCCCC1)Nc1ccc(S(=O)(=O)NC2CC2)cc1,-2%,0,5,2.2,4,
CCC[N+]1(CC#CC(O)(c2ccccc2)C2CCCCC2)CCCCC1 (configuration not stated),-1%,-11,nt,6.0,nt,
O=C(CCS(=O)(=O)c1cccc2nonc12)Nc1ccc(Br)cc1,nt,79,nt,0.4,nt,
CC1CN(C(=O)c2nn(C)cc2[N+](=O)[O-])CC(C)O1 (configuration not stated),4%,-11,-2,-2.2,-45,
Cc1cc(C)c(C)c(OCC(=O)NCCN(C)C)c1,-3%,-5,-7,-4.4,-6,Arbovirus anti repeat=-2
Cc1ccc(CN2CCN(Cc3cnc(C)s3)CC2CCO)cc1 (configuration not stated),5%,-4,5,-1.1,nt,
Cc1occc1-c1nc(-c2ccncc2)no1,-1%,-1,0,0.6,10,
COc1ccc(C(=O)/C=C/C(=O)N(CC(=O)NC2CCCCC2)Cc2ccccc2OC)c(O)c1,-9%,nt,-40,2.7,nt,
Cc1c(C(=O)Nc2c(C)n(C)n(-c3ccccc3)c2=O)oc2ccc(Cl)cc12,nt,-7,nt,3.4,nt,
Cc1cccc(-c2noc(CCC(=O)NCc3ccccc3)n2)c1,-1%,-1,6,2.6,-5,
CCn1cc(C(=O)OCC(=O)c2cc(C)n(-c3ccccc3)c2C)c(=O)c2ccc(C)nc21,3%,-5,-1,-1.4,-17,
C=CCn1c(SCC(=O)NC2CCCCC2)nnc1-c1cccnc1,nt,-7,nt,1.2,nt,
CCOC(=O)c1c(CS(=O)(=O)c2ccccc2)n(C)c2cc(Br)c(O)c(CN(C)C)c12,0%,6,0,4.4,nt,
O=C(CSc1n[nH]c(=O)[nH]c1=O)c1ccccc1[N+](=O)[O-],0%,-8,nt,nt,nt,
COc1ccccc1C1=NN(C2=NN=C(N)Cc3ncnn32)C(O)(C(F)(F)F)C1 (configuration not stated),4%,-6,1,5.8,nt,
Cc1cc(C(=O)Nc2ccc(N3CCOCC3)cc2)c2ccccc2n1,0%,1,-9,1.2,-35,
CCN=C(Nc1ccc2c(c1)OCO2)SC1CC(=O)N(c2ccc(OC)cc2)C1=O (configuration not stated),-10%,1,-7,3.0,-31,
Nc1nc2c3ccccc3nc(Cc3ccccc3)n2n1,15%,3,-3,-0.1,-75,
O=C(NC1CCCCC1)C(c1cccs1)N(Cc1cccs1)C(=O)c1ccco1 (configuration not stated),-3%,5,-14,2.9,-29,
CC1(C)CC(=O)C2=C(C1)NC(=S)C(C#N)C21CCCCC1 (configuration not stated),-14%,-5,nt,-3.5,nt,
O=C(O)c1nc2nc(Cl)c(Cl)nc2[nH]1,1%,2,nt,-4.7,nt,
O=c1cc(N2CCCCC2)c(-c2ccccc2)nn1Cc1ccccc1Cl,12%,14,-42,28,-29,
O=C(Nc1ccccc1)N(CCN1CCOCC1)Cc1cccc(Cl)c1,13%,4,0,0.6,-59,
COc1cccc(C2=Nc3cccc4cccc(c34)N2)c1,2%,20,-22,1.7,10,
Cc1cc(C(=O)N/N=C/C=C/c2ccc(Br)cc2)n[nH]1,nt,5,nt,-0.7,nt,
COc1ccc(N2C(=O)CN(Cc3cc(OC)c(OC)c(OC)c3)C2=S)cc1,0%,17,4,0.0,nt,
O=C(C1CCN(S(=O)(=O)Cc2ccccc2)CC1)N1CCN(c2ncccn2)CC1,21%,-8,0,-1.3,-22,
CN(C)/C=N/c1cc(=O)n(C)c(=O)n1CC1CC1,-4%,-2,3,-5.4,0,

# In the list so far, 15 contain sulfur.
SMILES,Mtb growth,Mtb bLac sens,Arbovirus anti,RecA splice inh,YopH PTP inh,others
Cc1cccc(N(CC(=O)NCCC2=CCCCC2)S(C)(=O)=O)c1C,3%,-5,-2,nt,-20,
Cc1cc(C)c[n+](-c2[nH]c(=O)sc2/C=N/NC([S-])=Nc2ccccc2)c1,-2%,4,-14,-3.4,-30,
CCCC(C)n1[nH]c(=O)c2c1NC(=O)CSC2c1ccc(OC)c(OC)c1 (configuration not stated),-2%,-1,-3,-6.9,-114,
Nc1ccc(C(=O)Nc2nc3ccccc3s2)cc1,-2%,1,-7,0.5,-18,
O=C(CNC1CCCCCC1)Nc1ccc(S(=O)(=O)NC2CC2)cc1,-2%,0,5,2.2,4,
O=C(CCS(=O)(=O)c1cccc2nonc12)Nc1ccc(Br)cc1,nt,79,nt,0.4,nt,
Cc1ccc(CN2CCN(Cc3cnc(C)s3)CC2CCO)cc1 (configuration not stated),5%,-4,5,-1.1,nt,
C=CCn1c(SCC(=O)NC2CCCCC2)nnc1-c1cccnc1,nt,-7,nt,1.2,nt,
CCOC(=O)c1c(CS(=O)(=O)c2ccccc2)n(C)c2cc(Br)c(O)c(CN(C)C)c12,0%,6,0,4.4,nt,
O=C(CSc1n[nH]c(=O)[nH]c1=O)c1ccccc1[N+](=O)[O-],0%,-8,nt,nt,nt,
CCN=C(Nc1ccc2c(c1)OCO2)SC1CC(=O)N(c2ccc(OC)cc2)C1=O (configuration not stated),-10%,1,-7,3.0,-31,
O=C(NC1CCCCC1)C(c1cccs1)N(Cc1cccs1)C(=O)c1ccco1 (configuration not stated),-3%,5,-14,2.9,-29,
CC1(C)CC(=O)C2=C(C1)NC(=S)C(C#N)C21CCCCC1 (configuration not stated),-14%,-5,nt,-3.5,nt,
COc1ccc(N2C(=O)CN(Cc3cc(OC)c(OC)c(OC)c3)C2=S)cc1,0%,17,4,0.0,nt,
O=C(C1CCN(S(=O)(=O)Cc2ccccc2)CC1)N1CCN(c2ncccn2)CC1,21%,-8,0,-1.3,-22,

# (listing goes on)
SMILES,Mtb growth,Mtb bLac sens,Arbovirus anti,RecA splice inh,YopH PTP inh,others
Cc1noc(C)c1CSCC(=O)N(CCC(C)C)c1c(N)n(Cc2ccccc2)c(=O)[nH]c1=O,nt,-11,nt,2.7,nt,
COc1ccccc1C1CC(c2cccs2)=NN1C(=O)CCC(=O)O (configuration not stated),nt,1,nt,0.8,nt,
CCOC(=O)c1ccc(NC(=O)c2c(NC(=O)CCC(=O)O)sc3c2CCCCC3)cc1,68%,-8,3,4.4,nt,
CCCCc1cc(=O)oc2cc(OCC(=O)NCc3ccccn3)c(Cl)cc12,nt,-6,nt,-1.8,nt,
O=C(NCCS(=O)(=O)N1CCN(c2cccc(Cl)c2)CC1)c1cc(=O)c2ccccc2o1,nt,-12,nt,1.1,nt,
Cc1nnc(NC(=O)CCC(=O)N2CCN(CCOc3cccc4ccccc34)CC2)s1,7%,15,nt,-0.6,nt,
Cc1nn(CC(=O)NCC2CCCO2)c(=O)c2ccccc12 (configuration not stated),0%,-3,2,1.3,-5,
CN1C(=S)SC(N(O)C=C2C=CC(=O)C=C2)C1(C)C (configuration not stated),-6%,-8,2,-2.5,-14,
N/C(Cc1cccc2ccccc12)=N\OC(=O)c1cccs1,?,29,-3,33*,-12,
CC(=O)Nc1nnc(S(=O)(=O)N2CCN(c3ccc(Cl)cc3[N+](=O)[O-])CC2)s1,nt,-2,nt,0.8,nt,
O=C(CN1C(=O)C2(OCCO2)c2ccccc21)c1ccc(F)cc1,-4%,-5,2,1.6,-22,
Cc1c(NS(=O)(=O)c2cccc(C(=O)NCc3ccc(Cl)cc3)c2)c(=O)n(-c2ccccc2)n1C,-18%,-4,6,0.1,-27,
CCCOc1ccc(C2c3c(oc4ccccc4c3=O)C(=O)N2CCN(CC)CC)cc1OC (configuration not stated),-14%,-2,6,-4.4,-31,
COC(=O)c1ccsc1NC(=O)CCS(=O)(=O)c1ccc(Cl)cc1,nt,1,nt,2.4,nt,
CC(=O)c1cccc(Oc2ncccn2)c1,nt,-3,nt,3.0,nt,
O=C1NC(=Nc2ccccc2)SC1Cc1cccc(Cl)c1Cl (configuration not stated),9%,3,17,0.3,-13,
Cc1ccc(-c2noc(C3CCN(S(C)(=O)=O)CC3)n2)o1,-3%,-3,2,2.1,-28,
COC(=O)c1c(-c2ccccc2)nn(-c2ccccc2)c1C(=O)OC,nt,2,nt,-1.8,nt,
COc1ccccc1CNc1cc(-c2ccccc2)ccc1OC,9%,-1,9,0.4,-36,
Cc1cc(C)cc(N2C(=O)CSC2c2ccccn2)c1 (configuration not stated),5%,-8,4,1.0,nt,
O=[N+]([O-])c1ccc(C2=Nn3c(Cn4nnc5ccccc54)nnc3SC2)cc1,-6%,-6,nt,0.2,nt,
CCn1ccnc1CNCc1cn(-c2cc(C)ccc2C)nc1-c1ccccc1,72%,84,8,0.0,nt,
CCC1Sc2ccccc2N(CC(=O)NC2CCCCC2)C1=O (configuration not stated),7%,-3,8,0.1,nt,
CCCCOc1ccc(-c2ncc(C(=O)O)c(C)n2)cc1,0%,1,14,-1.4,-8,
CC(C)(C)NC(=O)Cn1c(=O)oc2ccc(Cl)cc21,9%,0,-1,-0.9,-14,Arbovirus anti repeat=5
Cc1ccc(NC(=O)C2CCCN(C(=O)Nc3ccc(F)cc3)C2)cc1 (configuration not stated),nt,-4,nt,-1.1,nt,
CCOc1cccc2cc(C(=O)NCc3cccnc3)c(=O)oc12,-4%,?,5,-6.3,-25,
Cc1ccc(C2CC(c3ccc(Cl)cc3)n3nc(N)nc3N2)cc1 (configuration not stated),2%,0,-1,-1.3,-10,Arbovirus anti repeat=0
CC1CN(c2ccc(Oc3ccccc3)cc2)c2nc3c(c(=O)n(CC(N)=O)c(=O)n3C)n2C1 (configuration not stated),9%,-4,-7,-1.1,nt,Arbovirus anti repeat=-4
CCOc1cc2c(cc1OCC)-n1cccc1C(c1ccc(C(C)C)cc1)NC2 (configuration not stated),nt,85,nt,11,nt,
COc1ccc(Cl)cc1NC(=O)CSC1=NN2CCCC(=O)N=C2S1,nt,65,nt,-2.1,nt,
Cc1cc2ccccn2c1C(=O)c1cccc(S(=O)(=O)N2CCOCC2)c1,-5%,-1,3,3.0,nt,
Cc1ccc(N(Cc2cc3ccc(C)cc3[nH]c2=O)S(=O)(=O)c2ccccc2)c(C)c1,nt,56,nt,2.9,nt,
COc1ccc(C2Nc3ccccc3C(=O)N2NS(C)(=O)=O)cc1OC (configuration not stated),3%,-2,-4,-8.3,nt,
O=C(COC(=O)Cc1ccccc1F)Nc1ccc(Cl)cn1,-6%,-5,2,2.9,nt,
CCN(CC)C(=S)Nc1cc(C(=O)OC)ccc1C(=O)OC,-1%,2,0,-0.2,-37,
Cn1ccnc1C(OC(=O)c1ccc(Cl)cc1)C(F)(F)F (configuration not stated),nt,2,nt,5.4,nt,
CCOc1ccccc1NC(=O)COC(=O)C1CCC1,nt,0,nt,0.4,nt,
CC(C)(C)N(Cc1ccccc1)C(=O)COC(=O)CCc1c[nH]c2ccccc12,3%,43,1,8.1,-10,
CCOC(=O)C1=C(C(F)(F)F)Nc2ncnn2C1c1ccc(OC)cc1OC (configuration not stated),-3%,-9,7,-0.8,-14,
COc1ccc(NC(=S)N(Cc2ccc(C)cc2)Cc2ccccn2)cc1,-7%,3,6,-0.4,nt,
O=C(Nc1ncccc1O)c1ccc2c(c1)OCCO2,nt,-8,nt,-1.7,nt,
O=C(NC(=S)NCCCN1CCOCC1)c1ccco1,3%,-3,13,-0.5,nt,
O=C(Nc1nc(-c2ccccc2)cs1)c1ccccc1F,nt,-5,nt,7.5,nt,
